# 2A firefly: lowers the firefly signal of an FMDV 2A StopGo reporter; actives 0.23% (n = 120,000); HEK cells with a luciferase reporter of 2A StopGo recoding; Potency, µM (doses to about 57.5 µM), for the others: at the highest dose signal change, negative = less light; active = well fitted falling curve with a large enough effect; inconclusive = small, poorly fitted or top-dose-only effect; inactive = no such curve, though single readings can be large or run the other way; further: nearly all actives have a fitted effect of over 60% in size; overnight with compound
# 2A Renilla: FMDV 2A StopGo reporter, Renilla signal; HEK cells with a luciferase reporter of 2A StopGo recoding; Potency, µM (highest dose often 57.5 µM), inactives show top-dose signal change, negative = less light; actives 0.32% (n = 120,000); active means well fitted falling curve with a large enough effect; inconclusive means small, poorly fitted or top-dose-only effect; inactive means no such curve, though single readings can be large or run the other way; further: nearly all actives have a fitted effect of over 55% in size; overnight with compound
# Active calls of the source: *; ? = inconclusive; & = joins results of further samples; [ ] = dose if it differs, or a comment. On the % scale 0 is the no-effect control and ±100 the full control effect; potency means the concentration at half of the fitted maximal effect.
Structure	2A firefly	2A Renilla
Cc1ccc(C)c(NC(=O)Cn2c(SCC(=O)NCc3ccccc3)nc3ccccc32)c1	-7.4%	-11.5%
C/C(=N/NC(=S)Nc1ccc(Cl)cc1)c1ccc(Br)cc1	51.3%[activator]	2.3%
CCC(C)NC(=O)c1ccc2c(c1)sc1nc(-c3ccc(OC)cc3)cn12 (configuration not stated)	71.8%[activator]	2.7%
COc1ccc(CNC(=O)c2cc(=O)c3cc(C)ccc3o2)cc1	-4.6%&-12.9%	-4.5%&-8.8%
CCC1(CC)Cc2ccccc2-c2nc(CN3CCCC3)[nH]c(=O)c21	-12.9%	-16.7%
Cc1ccccc1NC1(c2nnnn2-c2ccccc2C)CCCCC1	?	62.4%[activator]
CCc1ccc(-c2csc(NC(=O)c3nn(C)c(=O)c4ccccc34)n2)cc1	25.8%	-0.3%
Fc1ccc(-c2noc(-c3ccccc3)n2)cc1	182.0%[activator]	-4.8%
COCCn1c(N2CCN(Cc3ccc(Br)cc3)CC2)nc2c1c(=O)[nH]c(=O)n2C	5.4%	0.7%
COc1ccccc1S(=O)(=O)NCc1ccc(C(=O)Nc2ccc(N3CCCCC3)cc2)cc1	-11.4%	-25.4%

# Single records (already shown).
# COCCn1c(N2CCN(Cc3ccc(Br)cc3)CC2)nc2c1c(=O)[nH]c(=O)n2C as listed: 2A firefly: 5.4%; 2A Renilla: 0.7%
# CCc1ccc(-c2csc(NC(=O)c3nn(C)c(=O)c4ccccc34)n2)cc1 as listed: 2A firefly: 25.8%; 2A Renilla: -0.3%

# Reprinted at random: 5 entries already listed, in no set order.
Structure	2A firefly	2A Renilla
Fc1ccc(-c2noc(-c3ccccc3)n2)cc1	182.0%[activator]	-4.8%
CCC(C)NC(=O)c1ccc2c(c1)sc1nc(-c3ccc(OC)cc3)cn12 (configuration not stated)	71.8%[activator]	2.7%
Cc1ccccc1NC1(c2nnnn2-c2ccccc2C)CCCCC1	?	62.4%[activator]
COc1ccccc1S(=O)(=O)NCc1ccc(C(=O)Nc2ccc(N3CCCCC3)cc2)cc1	-11.4%	-25.4%
CCC1(CC)Cc2ccccc2-c2nc(CN3CCCC3)[nH]c(=O)c21	-12.9%	-16.7%

# (next part)
Structure	2A firefly	2A Renilla
COC(=O)c1ccc(NC(=O)CC2C(=O)N(c3cccc(C)c3)C(=O)N2C2CCCC2)cc1 (configuration not stated)	7.1%	38.5%[activator]
O=C1CC(c2ccccc2)CC2=C1C=Nc1ccccc1N2 (configuration not stated)	?	?
COc1cc(S(=O)(=O)n2ccnc2C(C)C)ccc1Br	-23.6%	8.7%
O=C(NCCNC(=O)c1nc2ccccc2c(=O)[nH]1)c1ccccn1	27.6%	4.3%
Cc1cccc(NC(=O)N2CCC(CCNS(=O)(=O)c3c(C)cc(C)cc3C)CC2)c1	17.2%	85.8%[activator]
CCCN1CCN(CCCNC(=O)c2cc3c(s2)-c2ccccc2OC3)CC1	45.9%[activator]	-1.4%
O=C(Nc1cccc(Cl)c1)Nc1ccccc1OCc1cc(=O)n2ccccc2n1	-12.3%	-9.3%
CCNC(=O)NC(=O)COC(=O)c1cc(C)nc2ccccc12	0.0%	35.6%[activator]
Cc1cc(C)c2c(CN3CCN(c4ccccc4F)CC3)cc(=O)oc2c1	12.6%	1.7%
CCOc1ccc(NC(=O)CSc2oc(-c3ccc(C)cc3)nc2S(=O)(=O)c2ccc(C)cc2)cc1	0.0%	201.0%[activator]
COc1cc(C=C2CCC/C(=C\c3ccc(O)c(OC)c3)C2=O)ccc1O	22.4µM*	?
CN(C)c1ccc(-[n+]2ccc(-c3cc[n+](-c4ccc(N(C)C)cc4)cc3)cc2)cc1	?	?
CC(C)(C)NC(=O)C1CCN(c2oc(-c3ccco3)nc2C#N)CC1	-8.1%	-8.7%
O=C(NCc1nc(-c2ccccc2)no1)Nc1cccc2ccccc12	1.8%	-6.4%
COC(=O)CCCNC(=O)c1ccc(C(F)(F)F)cc1	0.0%	-1.8%
Nc1[nH]c(=O)ncc1F	-13.8%	-7.9%
CCOC(=O)c1ccccc1Nc1nc2ccc(C)cc2n2nnnc12	10.8%	-3.0%
NC(=O)c1cnccn1	-14.3%[11.5 µM]	-15.8%
CCOc1ccc(OCC)c(NC(=O)c2cnc(SC)nc2-c2ccccc2)c1	-4.8%	4.3%
Cc1ccccc1-c1ncnn1-c1sc2c(c1C#N)CCCCC2	5.5%	-6.1%
Cc1c(C#N)c(NC(=O)CSc2nnnn2C2CC2)n(CC2CCCO2)c1C (configuration not stated)	4.0%	4.9%
CN1CCN(S(=O)(=O)c2ccc3c(c2)NC(=O)CS3)CC1	14.5%	5.0%
CC(C)OCCCNC(=O)c1ccc(CSc2nc3cccnc3n2Cc2ccccc2)cc1	?	?
COc1ccc(Nc2ncc(C(=O)Nc3cccc(Cl)c3)c3ccccc23)cc1	0.0%	-4.9%
COc1ccc2c(c1)cc(C(=O)NC(C)c1ccccc1)n2C (configuration not stated)	16.9%	-13.4%
Cc1ccc(NC(=O)c2oc3ccc(S(=O)(=O)N4CCCCC4)cc3c2C)cc1C	-21.8%	-5.6%
CCOC(=O)N1CCN(C(C(=O)O)c2c[nH]c3ccc(C)cc23)CC1 (configuration not stated)	-2.8%	-9.6%
CCOC(=O)N1CCC(NC(=O)c2cnn(-c3ccc(C)cc3)c2-n2cccc2)CC1	-14.3%	-10.7%
COc1ccc(-c2nc(SC(C)C(=O)NC(C)(C)C)n[nH]2)c(OC)c1 (configuration not stated)	29.9%	31.8%[activator]
Cc1cc(O)c(C2CCCCC2)cc1C1CCCCC1	22.2%	20.8%

# 3 neighbouring records from above:
Structure	2A firefly	2A Renilla
COc1ccc2c(c1)cc(C(=O)NC(C)c1ccccc1)n2C (configuration not stated)	16.9%	-13.4%
Cc1ccc(NC(=O)c2oc3ccc(S(=O)(=O)N4CCCCC4)cc3c2C)cc1C	-21.8%	-5.6%
CCOC(=O)N1CCN(C(C(=O)O)c2c[nH]c3ccc(C)cc23)CC1 (configuration not stated)	-2.8%	-9.6%

# Later entries.
Structure	2A firefly	2A Renilla
N#Cc1nc(-c2ccccc2Cl)oc1N1CCCCCC1	209.6%[activator]	88.2%[activator]
Cc1cccc(CSc2nc3ccncc3n2Cc2ccc(C(=O)O)cc2)c1	21.5%	-20.3%
CCCc1nn(C)c2c(=O)[nH]c(-c3cc(S(=O)(=O)Nc4ccc(C)cc4C)ccc3OCC)nc12	?	125.4%[activator]
Cc1ccc(-c2nc3ccccc3n2CCNC(=O)NCC(C)C)cc1	0.0%	5.4%
COc1ccc(C2CC(c3ccccc3NS(C)(=O)=O)=NN2C(=O)c2cccs2)cc1 (configuration not stated)	-17.8%	-11.0%
Cc1ccc2c(c1)c1c(c(=O)n(Cc3ccccc3)c(=O)n1Cc1ccccc1F)n2C	-9.0%	-10.7%
COc1ccc(-c2cc(C(F)(F)F)nc(SCC(=O)N3CCCCC3)n2)cc1OC	-2.3%	4.0%
O=C(CSc1nccnc1N1CCN(c2ccc(F)cc2)CC1)Nc1ccc(F)cc1	?	?
Cc1ccc2c(CSc3nncn3C)cc(=O)oc2c1	-6.4%	-5.1%
COc1ccc(N2CN(CCCN(C)C)Cn3c2nc(C)c(C)c3=O)cc1	67.8%[activator]	26.5%
O=C1CC(c2ccc3c(c2)OCO3)c2c(n[nH]c2Nc2ccccc2)N1 (configuration not stated)	4.8%	-7.3%
Nc1ccc(Sc2ccccc2Cl)cc1	21.3%	12.8%
CCNC(=O)Cn1c(CO)cnc1SCc1ccccc1Cl	1.8%	0.9%
CN(C)c1ccc(-c2nc3cnccn3c2NC2CCCC2)cc1	144.2%[activator]	-2.4%
O=C(CSc1nnnn1C1CCCC1)NCc1ccc(CN2CCOCC2)cc1	-5.1%	5.9%
COc1ccccc1N1CCN(CCCNC(=O)c2nnc(Cc3ccc(F)cc3Cl)o2)CC1	5.2%	1.9%
CCCCOc1ccc2ccccc2c1/C=C(/C#N)c1nc2ccccc2[nH]1	45.4%[activator]	0.6%
CCNc1c(NC(=O)c2cc(Cl)ccc2OC)c(=O)oc2ccccc12	18.2%	20.3%
COc1ccc(OC)c(-c2cc(C(=O)O)c3cccc(C)c3n2)c1	10.3%	0.7%
CCOc1cc(CNC(=O)c2ncoc2-c2cccc(Cl)c2)ccc1OC	6.5%	1.1%

# The final five entries of the section before are carried over, then new ones follow:
Structure	2A firefly	2A Renilla
COc1ccccc1N1CCN(CCCNC(=O)c2nnc(Cc3ccc(F)cc3Cl)o2)CC1	5.2%	1.9%
CCCCOc1ccc2ccccc2c1/C=C(/C#N)c1nc2ccccc2[nH]1	45.4%[activator]	0.6%
CCNc1c(NC(=O)c2cc(Cl)ccc2OC)c(=O)oc2ccccc12	18.2%	20.3%
COc1ccc(OC)c(-c2cc(C(=O)O)c3cccc(C)c3n2)c1	10.3%	0.7%
CCOc1cc(CNC(=O)c2ncoc2-c2cccc(Cl)c2)ccc1OC	6.5%	1.1%
O=C(NCC(O)c1ccccc1)C1CCC(CNS(=O)(=O)c2ccc(Cl)cc2)CC1 (configuration not stated)	12.2%	0.0%
COc1ccc(-c2cc(C(=O)NCC(O)CO)c3ccccc3n2)cc1 (configuration not stated)	0.0%	9.9%
O=C(CCc1nc2ccccc2n1-c1ccccc1)NCc1ccccc1F	-6.3%	8.8%
O=C(CSc1ccc2c(c1)OCCCO2)Nc1ccc2c(c1)CCC2	?	?
COc1cc2c(cc1OC)CN(C(=O)CN(Cc1ccccc1)S(=O)(=O)c1ccccc1)CC2	-19.3%	7.0%
O=C(NCc1ccc(C(=O)N2CCCCCC2)cc1)c1cc2ccccc2oc1=O	-13.4%	-12.3%
O=C(/C=C/c1cccc2cccnc12)OCc1cc(-c2ccc(Cl)cc2)no1	76.3%[activator]	-3.0%[1.06 µM]
Nc1nccnc1C(=O)NCC(=O)OCc1ccccc1	-7.7%	-13.3%[1.06 µM]
CCOC(=O)c1oc2c(c1C)-c1nn(Cc3ccccc3Cl)cc1CC2	26.3%	8.0%
Cc1ccc(-c2sc(C(=O)Nc3ccc(Br)cc3)cc2CC(=O)O)cc1	-1.1%	-12.7%
CCNC(=O)NC(=O)C(C)OC(=O)CSc1ccc(Br)cc1 (configuration not stated)	-2.5%	-12.6%
Cn1c(=O)c2nc(SCC(=O)O)n(Cc3ccccc3)c2n(C)c1=O	-2.3%	6.7%
CCCNC(=O)CCNC(=O)NCc1nc2c(cnn2-c2ccccc2)c(=O)[nH]1	-0.8%	14.3%
O=C(O)CCC1NC(=O)N(CCc2c[nH]c3ccc(F)cc23)C1=O (configuration not stated)	6.7%	0.2%
CC(=O)N1CCN(C(=O)CCn2c(-c3ccccc3)cc3ccccc32)CC1	17.4%	64.8%[activator]
CCOC(=O)N1CCC(NC(=O)C(CC)n2nc(C)c3sc4ccccc4c3c2=O)CC1 (configuration not stated)	-10.2%	-9.9%
CCCCCCCCCC(=O)NN=C1CCCCCCCCCCC1	-11.7%	-8.4%
Cc1ccc(NC(=S)Nc2ccc(S(=O)(=O)Nc3ccccc3)cc2)cc1	0.0%	134.1%[activator]
Cc1[nH]c2ccccc2c1C(=O)CN1C(=O)CC2(CCCC2)C1=O	15.9%	-2.6%
CC(NC(=O)CSc1nnnn1-c1ccc(O)cc1)c1ccc2c(c1)CCCC2 (configuration not stated)	-15.2%	-12.2%
Cc1ccc(C=Nc2ccc(-c3ccc(N=Cc4ccc(C)s4)cc3)cc2)s1	52.7%[activator]	21.0%
Nc1ccc(S(=O)(=O)NC(=O)c2ccccc2)cc1	-2.2%[11.5 µM]	-3.0%
CSc1ncc(C(=O)Nc2ccc(Cl)cc2)c(C(F)(F)F)n1	0.0%	7.9%
Cc1[nH]c2ccccc2c1C(=O)C(=O)N1CCC(C(=O)N2CCCC2)CC1	4.1%	-4.1%
COc1ccccc1Nc1c2c(nc3ccc(NC(=O)/C=C/c4cccc(OC)c4OC)cc13)CCCC2	?	?
O=C(Cn1c(=O)nc(-c2ccccc2)c2cc(Cl)ccc21)N1CCN(c2ccccc2F)CC1	10.4%	-8.9%
COCCN1CN=C(NS(=O)(=O)c2ccc(C)cc2)NC1	-13.7%	-11.1%
CCOc1ccc(CNC(=O)CCS(=O)(=O)c2ccc3c(c2)oc(=O)n3C)cc1	-3.9%	-8.5%

# The list is partial; rates above refer to the full screens.
